PrP 5UTR inh – inhibition of PrP 5' UTR reporter expression | cell-based PrP 5' UTR mRNA reporter, plate reader | inhibition, % (concentration not given with the values) | actives 0.35% (n = 340,000);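 active = every replicate at 50% or more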;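 also: 0 = median of the neutral control wells; tested in H4 reporter cells; numbers are from one replicate; inactives centre near -14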
BJeLR lethal – MLPCN primary cell-based screen for lethality selective to Ras in HRASV12 cells; BJeLR (HRASV12) viability, CellTiter-Glo ATP luminescence, 48 h; reference of the scale not given here; inhibition, % (concentration not given with the values); actives 0.17% (n = 300,000); AID 1554, 2009;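 active = replicate mean above 50%; inconclusive = above 50% but judged a plate artefact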;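 also: 50 nL library stock added to about 25 µL; numbers are from one replicate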
Sa ugtP lethal – growth inhibition of ugtP-null S. aureus, primary screen, RN4220 ugtP deletion, OD600 | 16 h; some inactives read as strong as hits | AID 1259309, 2017 | actives 0.54% (n = 330,000) | growth inhibition, % (concentration not given with the values);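 active = z-score under -3 and OD600 up to 0.15 on both plates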;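 also: plate controls were untreated wells for no effect and antibiotic for full effect; wells of about 80 µL received 100 nL stock; the first replicate is given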
RN4220 kill – growth inhibition of S. aureus RN4220, primary screen, OD600; inhibition, % (test concentration not listed); actives 0.33% (n = 330,000); AID 1259311, 2017; 16 h;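 active = z-score of -3 or lower and OD600 up to 0.18 on both plates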;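 also: plate controls were untreated cells for no effect and reference antibiotic for full effect; stock transfer was 100 nL into about 80 µL; one replicate is shown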
Bead autofluor – counter-screen for toxin protease inhibitors: compound fluorescence. compound autofluorescence counterscreen, microsphere flow cytometry; stronger effect = higher value. fluorescence intensity (concentration not given with the values). actives 3.1% (n = 360,000);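 active = at least 3 SD above the mean of all compounds, about 16000 in these data; inconclusive = too few beads counted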;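 also: 100 nL of 1 mM stock went into each well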
Mtb hypoxia rep – PubChem AID 1159583 | M. tuberculosis hypoxia-regulated fluorescent reporter, fluorescence | fluorescence inhibition, % (concentration not given with the values) | actives 0.1% (n = 300,000);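 active = 35 to 45% if threefold the growth effect, above 45% if 1.5-fold the growth effect; inactive = the rest, general growth blockers included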;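 also: wells of about 50 µL received 100 nL stock; 0% = vehicle wells and 100% = reference inhibitor wells; whole bacteria with a GFP reporter of the hypoxia response; strong numbers were not always called active; many hits fall short of the cut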
Mtb hypoxia rep growth – recorded beside Mtb hypoxia rep, whose call it bears; growth inhibition, %; measured here: M. tuberculosis growth (absorbance);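 0% = vehicle and 100% = reference antibiotic; read after six days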
An asterisk follows results filed as active; ? = inconclusive; · = not tested or not shown.

The first two entries, to show the layout:
SMILES | PrP 5UTR inh | BJeLR lethal | Sa ugtP lethal | RN4220 kill | Bead autofluor | Mtb hypoxia rep | Mtb hypoxia rep growth
O=C(c1ccco1)N1CCN(C(=O)c2cc3sccc3n2Cc2ccccc2)CC1 | -23 | -6 | -5 | 3.3 | 10908 | 8 | 14
N#CC1=C(N)S[C@H](C(=O)C23CC4CC(CC(C4)C2)C3)[C@H]1c1ccncc1 | 1 | -2 | 10 | 16 | 3543 | · | ·

The list itself, repeating the preview:
SMILES | PrP 5UTR inh | BJeLR lethal | Sa ugtP lethal | RN4220 kill | Bead autofluor | Mtb hypoxia rep | Mtb hypoxia rep growth
O=C(c1ccco1)N1CCN(C(=O)c2cc3sccc3n2Cc2ccccc2)CC1 | -23 | -6 | -5 | 3.3 | 10908 | 8 | 14
N#CC1=C(N)S[C@H](C(=O)C23CC4CC(CC(C4)C2)C3)[C@H]1c1ccncc1 | 1 | -2 | 10 | 16 | 3543 | · | ·
N/C(CC1CC1(Cl)Cl)=N\OC(=O)c1ccccc1 (configuration not stated) | -15 | -5 | 6 | 5.5 | 3936 | 4 | 5
COc1ccc2nc(Cl)c(/C=N/Nc3ccccn3)cc2c1 | -22 | 4 | · | · | 3378 | · | ·
CCn1cc(CN2CCCC(C(=O)c3cccc(OC)c3)C2)c(C)n1 (configuration not stated) | -25 | 6 | -3 | -4.0 | 4705 | 6 | -1
CCN1CCN(C(=O)/C=C/c2ccc(C)o2)CC1 | -15 | -4 | 1 | 0.2 | 2419 | -4 | -3
CNC(=O)/C(C#N)=C/c1c(N2CCCCCC2)nc2c(C)cccn2c1=O | -22 | 2 | 1 | 4.0 | 4283 | 5 | 3
CCn1c(CNC(=O)c2cccc(C)c2)nnc1SCC(=O)Nc1cccc(OC)c1 | -11 | 3 | 19 | -4.9 | 7968 | 7 | 10
CCOC(=O)C(=O)N1c2ccccc2C(N(C(=O)C(=O)OCC)c2ccccc2)CC1C (configuration not stated) | -16 | 1 | 1 | 10 | 4117 | 12 | 3
CCSc1nc(N)c(NC(=O)c2ccc(Br)o2)c(=O)[nH]1 | -12 | 1 | 4 | 2.4 | 4999 | 2 | 5
CC(C)n1ncc2c(C(=O)NCCc3ccc(F)cc3)cc(C3CC3)nc21 | -18 | · | 0 | 0.1 | 6360 | 14 | 12
CC(=O)c1ccc(N(CC(=O)NCc2ccc3c(c2)OCO3)C(=O)c2csnn2)cc1 | -14 | -4 | -14 | -4.3 | 5841 | 0 | -3
COc1ccc2c(c1OC)C(=O)N1N=C(c3ccc(Cl)cc3)CC21 (configuration not stated) | -38 | 21 | 1 | 4.6 | 2187 | 7 | -3
O=C(COc1ccc(C(=O)NCCc2ccccc2)cc1)Nc1ccccc1 | -23 | 4 | 4 | -0.4 | 2431 | -2 | -2
N#Cc1cccc(C(=O)OCC(=O)NCc2ccco2)c1 | -16 | -5 | 2 | 0.5 | 4317 | -15 | -14
COc1ccc(NC(=O)/C=C/c2ccccc2)c([N+](=O)[O-])c1 | -121 | 0 | 5 | 9.7 | 2532 | 13 | 12
COC(=O)c1cccc(C23CC4(C2)[C@H](CN(CC2CCCCC2)[C@@H]4c2ccccc2)C3c2ccccc2)c1 (some centres not stated) | -14 | -5 | · | · | 4902 | · | ·
NC(=O)C1CCN(CCC(=O)Nc2cccc(Cl)c2)CC1 | -20 | -4 | 6 | -1.3 | 3870 | · | ·
Cc1ccc(-n2c(-c3ccco3)nc3c(cnn3-c3ccc(C)cc3)c2=O)cc1 | 10 | -13 | 4 | 6.8 | 4343 | -6 | 1
CCCCC(=O)Nc1ccc2c3c(cccc13)C(=O)N2CC | -11 | -4 | 4 | 0.3 | 7895 | 3 | 11
O=C(CSc1nnc(-c2ccccn2)o1)Nc1ccccc1Cl | -97 | 8 | 7 | 4.6 | 4353 | 5 | 1
O=C(COC(=O)CNC(=O)c1ccccc1)NCc1ccc2c(c1)OCO2 | -64 | · | 3 | 1.6 | 7863 | -3 | 4
COc1ccc(CCNC(=O)CCCOc2ccc(Cl)cc2)cc1OC | -7 | -3 | 20 | 11 | 4280 | 11 | -2
O=C(NCc1ccccc1)C1=CC(c2coc3ccccc3c2=O)CC(OCc2ccc(CO)cc2)O1 (configuration not stated) | · | · | -1 | 2.6 | · | 10 | 13
C[C@]12CCC(=O)C=C1CC[C@@H]1[C@@H]2C(=O)C[C@]2(C)C(=O)CC[C@@H]12 | -11 | 11 | · | · | 5710 | · | ·
O=C1C(=O)N(Cc2ccccc2)C(=O)N1CCOc1ccccc1 | -28 | · | 2 | 6.1 | 4706 | -2 | 3
CCO/C=C1\C(=O)N(c2ccccc2)C(=O)c2ccccc21 | -7 | · | 6 | 4.5 | 9960 | 7 | 6
O=C(O)c1cc(N/N=C/c2ccc(-c3ccc(F)cc3)o2)ccc1Cl | -22 | -10 | · | · | 5022 | · | ·
O=C(CC1CCCC1)OCn1nnc2ccccc2c1=O | -3 | -8 | 3 | 5.8 | 3756 | 5 | 3
O=C(C1CCC(=O)N(C2CCCCCC2)C1)N1CCN(c2ccccc2Cl)CC1 (configuration not stated) | -4 | 7 | 9 | 3.0 | 5778 | -1 | -4
Cc1cc(NC(=O)CSc2nnc(C)c(=O)[nH]2)no1 | -7 | 7 | 10 | 5.3 | 3932 | 5 | 2
O=C(CC1C(=O)NCCN1Cc1ccccc1C(F)(F)F)NCCc1ccccn1 (configuration not stated) | -16 | 1 | -6 | 4.2 | 2160 | 4 | 6
CSc1nsc(SCC(=O)Nc2ccc(O)c(C(=O)O)c2)n1 | -11 | -9 | · | · | 3989 | · | ·
CC(C)(C)NC(=O)COc1ccc(CNCCc2ccccc2)cc1 | 7 | -10 | 5 | 8.6 | 4872 | 23 | 21
CC1CCN(C(=O)COc2ncnc3ccccc23)CC1 | -28 | 10 | 2 | 7.2 | 3888 | 11 | 1
COc1cccc(CNC(=O)C2CCN(S(=O)(=O)c3c(C)nn(C)c3C)CC2)c1 | -36 | 0 | 6 | 0.3 | 5888 | · | ·
CC(=O)Nc1ccc(S(=O)(=O)Nc2ccccc2C(=O)NCc2cccnc2)cc1 | -31 | -7 | 7 | 1.6 | 3915 | 18 | 6
O=c1[nH]c(N2CCOCC2)nc2ncn(Cc3ccccc3)c12 | -14 | 8 | 1 | -1.8 | 9820 | 3 | -4
CCOC(=O)c1[nH]c(C)c(C(=O)OCC(=O)NCc2ccc(Cl)cc2)c1C | -9 | · | -3 | 4.9 | ? | -1 | 3
O=C(N/N=C/c1ccc(O)c(O)c1O)/C(=C/c1ccc([N+](=O)[O-])cc1)NC(=O)c1ccccc1 | -10 | -2 | · | · | ? | · | ·
CCCCn1c(-c2sccc2C)n[nH]c1=S | -20 | -1 | -2 | 5.7 | 3451 | 8 | 16
C=CCNc1nc(NCCN2CCOCC2)nc(OC)n1 | -4 | -6 | 11 | 4.8 | 3632 | · | ·
CCOC(=O)c1ccc2c(c1)n(CC)c(/C=C/Nc1ccccc1)[n+]2CC | -34 | -4 | -11 | -0.4 | 12676 | -17 | -3
CCOc1ccc(NC(=O)CN2CCN(c3ccccc3C)CC2)cc1S(=O)(=O)N1CCCC1 | -24 | · | -1 | -0.2 | 3678 | 3 | -4
COc1ccc2nc3oc(C(=O)N4CCN(c5cccc(C(F)(F)F)c5)CC4)cc3cc2c1 | -25 | 5 | 0 | -1.8 | 3881 | · | ·
CCc1ccc(OCC(=O)N/N=C/c2ccc(OS(=O)(=O)c3ccc(C)cc3)c(OC)c2)cc1 | -50 | 12 | · | · | 2652 | · | ·
CCN(CC)c1ccc(C(=O)N/N=C(\C)c2ccc(O)cc2)cc1 | -4 | -13 | · | · | 2545 | · | ·
C[C@@H](NC(=O)C(=O)c1c[nH]c2ccccc12)c1ccccc1 | -13 | -4 | -9 | 2.5 | 5774 | · | ·
Cc1ccc(-n2nc(C)c3c2C(Br)C(C)(C)CC3=O)nc1 (configuration not stated) | -4 | · | 13 | 7.9 | 2912 | -2 | -1
Cc1cnc(NC(=O)c2cc(-c3ccccc3)nn2-c2ccccc2)s1 | -29 | · | 5 | 3.8 | 3895 | 12 | 11
O=C(NCCc1ccccn1)c1ccc(OC2CCN(Cc3ccccn3)CC2)cc1 | -34 | 2 | 3 | -1.2 | ? | 2 | -2
Cc1c(OC(C)C(=O)NCCN2CCOCC2)ccc2c3c(c(=O)oc12)CCC3 (configuration not stated) | 1 | -6 | 1 | 2.0 | 5343 | 3 | 0
C(=Cc1nc(-c2ccccc2)no1)c1ccccc1 | · | · | 35 | -5.4 | · | 2 | 2
Cn1cc(S(=O)(=O)NCc2ccc(F)cc2)c(=O)n(C)c1=O | -45 | -8 | 0 | -0.7 | 5604 | -1 | 5
C=CCNC(=O)CCc1nnc(C2(c3ccc(Cl)cc3)CCC2)o1 | -34 | -3 | 1 | -3.5 | 2423 | -1 | -9
COc1cc(NS(=O)(=O)c2ccc(Nc3nc(-c4ccccc4)cs3)cc2)nc(OC)n1 | -63 | 0 | 10 | 8.7 | 2333 | -3 | -23
Cc1ccc(NC(=O)c2ccc3c(c2)C(=O)N(c2cc(C)ccc2C)C3=O)nc1 | -10 | 6 | 3 | 3.7 | 5826 | -8 | 1
Cc1ccc(NC(=S)NC2CCSc3ccccc32)cc1C (configuration not stated) | -8 | 1 | 6 | 4.7 | 3958 | -3 | -9
CN1/C(=C\C=N\NC(=O)c2cccnc2)C(C)(C)c2ccccc21 | -21 | 4 | · | · | 4437 | · | ·
O=C(NN=CC1CC2CCC1C2)C1CC1 (configuration not stated) | · | · | -1 | -1.7 | · | -1 | -4

Limited to Mtb hypoxia rep growth (3 entries from above):
compound	Mtb hypoxia rep growth
Cc1cnc(NC(=O)c2cc(-c3ccccc3)nn2-c2ccccc2)s1	11
Cc1ccc(NC(=S)NC2CCSc3ccccc32)cc1C (configuration not stated)	-9
C=CCNC(=O)CCc1nnc(C2(c3ccc(Cl)cc3)CCC2)o1	-9

(continued)
SMILES | PrP 5UTR inh | BJeLR lethal | Sa ugtP lethal | RN4220 kill | Bead autofluor | Mtb hypoxia rep | Mtb hypoxia rep growth
Cc1ccc(/C=C/C2=NN(Cc3ccccc3)C(=O)CC2)cc1 | -18 | -7 | 29 | 0.4 | 2842 | · | ·
Cc1ccc(NC(=O)C2CC(=O)N(CCc3ccccc3)C2)cc1Cl (configuration not stated) | -16 | · | -5 | 1.8 | 3140 | 9 | 0
COC(=O)c1ccccc1NC(=O)CS(=O)(=O)Cc1nc(-c2ccc(C)cc2)oc1C | -25 | 9 | -9 | -5.9 | 5589 | 3 | 3
Cc1ccccc1C(=O)Oc1ccc2ccc(O)cc2c1 | -70 | 5 | 20 | 9.4 | 3571 | 18 | 8
CC(C)(C)SCCNC(=O)c1ccc(NS(C)(=O)=O)cc1 | -40 | 4 | -1 | -4.8 | 9238 | 3 | -4
COc1ccc(-c2cc(-c3n[nH]c(=S)n3-c3cccc4ccccc34)[nH]n2)cc1 | -4 | -2 | 35 | -3.7 | 4626 | 3 | 13
COc1ccc(CNC(=O)c2cc(-n3cnnc3)ccc2Cl)cc1 | -23 | -1 | -16 | -8.0 | 2459 | · | ·
CCOC(=O)c1oc2ccc(CNC3CCCCC3)c(Cl)c2c1C | -17 | 4 | 82* | -1.9 | 7048 | 10 | 12
Cc1ccc(S(=O)(=O)N(C)C)cc1NC(=O)COC(=O)/C=C/c1ccc2c(c1)OCO2 | -1 | 0 | 4 | 2.7 | 4206 | 4 | -1
COc1cc(SC)ccc1C(=O)NCc1ccccc1 | -23 | -20 | -1 | 3.3 | 2043 | 0 | 3
Cc1ccccc1NC(=O)Cc1nnc(SCC(=O)NC2CCCCC2)n1C | -16 | 6 | 6 | -2.0 | 3916 | 6 | -1
COc1ccccc1N1CCN(C(=O)c2cc(-c3ccc(C)cc3)on2)CC1 | -52 | -2 | -1 | 3.2 | 6118 | -4 | -1
Cc1ccc(O)c(NC(=O)CN(C)S(=O)(=O)c2ccc(Cl)cc2)c1 | -20 | 4 | 2 | 5.9 | 5030 | -6 | -3
CN1CCN(C(=O)c2ccc(Oc3ccc([N+](=O)[O-])cc3)cc2)CC1 | -2 | 3 | 8 | 7.3 | 3862 | 18 | 6
Cc1cc(C)c(NC(=O)CSc2nc3ccccc3c(=O)n2CCCN2CCOCC2)c(C)c1 | -9 | · | 11 | 6.6 | 6498 | 2 | 2
